Mtb H37Rv: Mycobacterium tuberculosis H37Rv growth inhibition, putative kinase inhibitor library, confirmatory dose response (AID 2842); one-dose inhibition, % at 10 µg/mL; IC90 in µg/mL for titrated hits; hit rate 5.2% among 24,000; M. tuberculosis H37Rv growth inhibition; higher % means a stronger effect; some inactives read as strong as hits;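 active = confirmed in a dose series; about a fifth of its hits are not listed in these tables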;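 also: bacteria incubated one week before Alamar blue readout; 0% = bacteria only wells and 100% = bacteria with high antibiotic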
* = called active by the depositor.

molecule	Mtb H37Rv
Cc1ccc(/C=C2/SC(=S)N(c3ccc(C(=O)O)c(O)c3)C2=O)o1	48%
Cc1cccc(NC(=O)CN2C(=O)CC(c3ccco3)Sc3ccccc32)c1 (stereo not drawn)	5%
CC(C)(C)n1nc2c(c1NC(=O)CCC1CCCC1)CS(=O)C2 (stereo not drawn)	-1%
CCN(CC)c1ccc(C(=O)Nc2nc3ccc4sc(C)nc4c3s2)cc1	9%
CCOc1ccc(C(=O)NCCc2cc3ccc(C)cc3[nH]c2=O)cc1	-1%
C/C(=N\Nc1nc2c(c(=O)[nH]c(=O)n2C)n1CC(C)O)c1ccc(O)cc1 (stereo not drawn)	-8%
Cc1ccc2cc(CCNC(=O)C3(c4ccc(Cl)cc4)CCCC3)c(=O)[nH]c2c1	-4%
COc1ccc(C(=O)c2cn(CC(=O)Nc3ccc(F)cc3)c3cc4c(cc3c2=O)OCO4)cc1	8%
CCOC(=O)Cn1c(=NC(=O)COc2ccc(Cl)cc2)sc2cc(S(N)(=O)=O)ccc21	-2%
Cc1nc2c(ccc3nc(NC(=O)c4ccc(C)c(C)c4)sc32)s1	2%
CCOC(=O)c1nn(-c2ccc(C)cc2)c(=O)c2c(NC(=O)c3cc(Cl)ccc3OC)scc12	1%
N#Cc1c(N)n(-c2ccc(O)cc2)c2nc3ccccc3nc12	-9%
COC(=O)c1sc2ncn(C(C)C(=O)Nc3ccc(C)cc3)c(=O)c2c1C (stereo not drawn)	32%
CC(=O)c1ccc(N2CCN(C(=O)NC3CC(=O)N(c4ccccc4)C3)CC2)cc1 (stereo not drawn)	4%
O=C1NC(=Nc2ccc(Cl)cc2)SC1Cc1cccc(C(F)(F)F)c1 (stereo not drawn)	96%
CCCC(=O)Nc1c(C(=O)Nc2ccc([N+](=O)[O-])cc2)oc2ccccc12	6%
Cc1cc(NC(=O)CSc2nnc(Cn3c(=O)sc4ccccc43)n2C)no1	4%
O=C(CSCc1cccc2ccccc12)Nc1ccc(F)cc1	9%
CC(C)c1ccc2nc(Nc3nc4ccc(S(C)(=O)=O)cc4s3)sc2c1	12µg/mL*
CCOC(=O)c1nn(-c2ccccc2)c(=O)c2c(NC(=O)CCCc3ccccc3)scc12	-2%
Nc1nc(SCc2c(F)cccc2Cl)[nH]c(=O)c1NC(=O)c1ccco1	9%
COc1ccc(C(=O)Nc2c(N)nc(SCC(=O)N3CCc4ccccc43)[nH]c2=O)cc1	-2%
CCOC(=O)c1ccc(NC(=O)Nc2nc(-c3ccccc3)cs2)cc1	3%
O=C1N(Cc2cccc(Cl)c2)C2CS(=O)(=O)CC2N1c1ccccc1 (stereo not drawn)	-4%
NS(=O)(=O)c1ccc(CCNc2nc3c(-c4ccc(Cl)cc4)nnn3c3ccccc23)cc1	-6%
Cc1cc(SCC(=O)N2CCCCCC2)nc(=O)[nH]1	-3%
COc1ccc2nc(-c3ccc(OC)c(NC(=O)c4ccccc4F)c3)cn2n1	-5%
Cc1ccc(-n2nnc3c(=O)n(CC(N)=O)cnc32)cc1Cl	14%
O=C(CSc1nccn(-c2ccc(Cl)cc2)c1=O)c1ccc(F)cc1	4%
Cc1ccccc1-c1nnc(NC(=O)c2ccccc2Br)s1	4%
Cc1cccc(C(=O)Nc2ccc3c(c2)C(=O)NC3=O)c1	-13%
COC(=O)NNc1ncnc(N)c1[N+](=O)[O-]	2%
Cc1[nH]nc2c1C1(C(=O)Nc3ccccc31)C(C#N)=C(N)O2 (stereo not drawn)	-15%
O=C(CSc1ncnc2ccccc12)Nc1ccc2c(c1)OCO2	2%
CCSc1nnc(CSc2nc(C)cc(C)n2)n1CCc1ccccc1	3%
Cc1cc(C)c2nc(NNC(=O)c3cc(=O)c4ccccc4o3)sc2c1	-3%
CCOC(=O)c1c(NC(=O)c2ccc([N+](=O)[O-])s2)sc2c1CCC2	5%
COc1cccc(C2/C(=C(\O)c3ccncc3)C(=O)C(=O)N2CCCN2CCOCC2)c1 (stereo not drawn)	-1%
CCc1nc(SCc2ccc(C(=O)OC)o2)c2c(=O)n(C)c(=O)n(C)c2n1	-3%
Cc1cccc(Nc2nc(Nc3cccc(C)c3C)nc(N3CCOCC3)n2)c1C	-12%
Cc1cc(C)n2nc(C(=O)O)c(-c3ccccc3)c2n1	-3%
COc1ccc(NC(=O)CSc2ccc3nnc(-c4ccc(C)cc4)n3n2)cc1	4%
NC(=O)c1cc2c(ccc3ccccc32)o/c1=N\NC(=O)c1ccccc1	69%
COc1ccc(N2C(=O)C3N=NN(CC(=O)Nc4ccccc4)C3C2=O)cc1 (stereo not drawn)	-2%
NNC(=O)C1CCCN(S(=O)(=O)c2cccs2)C1 (stereo not drawn)	9%
O=C(Nc1nnc(SCc2ccc(Br)cc2)s1)c1ccc(-c2ccccc2)cc1	10%
CCOC(=O)c1nn(-c2ccccc2)c(=O)c2c(NC(=O)c3ccc(OC)cc3)scc12	-13%
CCOc1ccccc1-n1c(C)cn2c3c(=O)n(C(C)C(C)=O)c(=O)n(C)c3nc12 (stereo not drawn)	13%
CC(C)OC(=O)c1ccc(Cn2nnc3sc4c(c3c2=O)CCCC4)cc1	-16%
COc1cccc(Cn2cc3c(-c4ccc(F)cc4)nnc-3c3cc(OC)c(OC)cc32)c1	12%
Cn1c(=O)c2c(SCC(=O)Nc3cc(C(F)(F)F)ccc3Cl)nc(-c3ccco3)nc2n(C)c1=O	-2%
Cc1ccc(-c2csc3ncn(CC(=O)N/N=C\c4cc(Br)ccc4O)c(=O)c23)cc1	2%
O=C(Nc1nc(-c2ccc3c(c2)OCCO3)cs1)C1CC1	8%
CC(=O)Cn1c(=O)c2c(nc3n(CC4CCCO4)c(C)c(C)n23)n(C)c1=O (stereo not drawn)	4%
CCCc1cc(=O)[nH]c2nnc(SCC(=O)Nc3cccc(F)c3)n12	4%
Cc1ccc(C)c2[nH]c(=O)c(CCNC(=O)CCC3CCCCC3)cc12	9%
CC(=O)NNc1nc(C)cc(=O)[nH]1	-1%
Cc1ccc(Cn2c(N3CCN(Cc4ccccc4F)CC3)nc3c2c(=O)[nH]c(=O)n3C)cc1	7%
CC(C)N1CCc2c(sc(NC(=O)c3ccc(Br)cc3)c2C(N)=O)C1	2%
COc1ccc(N2CC(NC(=O)Nc3cccc4ccccc34)CC2=O)cc1 (stereo not drawn)	0%

(cont.)
molecule	Mtb H37Rv
COc1ccc(OC)c(NC(=O)c2oc3ccccc3c2NC(=O)c2ccccc2C)c1	-4%
COC(=O)C1=C(C)OC(N)=C(C#N)C1c1ccc(OC)cc1 (stereo not drawn)	-9%
CCn1cc(C(=O)Nc2ccc(OC)cc2OC)c2nn(-c3ccccc3)c(=O)c-2c1	-7%
O=C(Nc1cccc(C(F)(F)F)c1)NC1CC(=O)N(c2ccc(F)cc2)C1 (stereo not drawn)	13µg/mL*
NC(=O)c1cc2cc(Br)ccc2oc1=Nc1ccc(Oc2ccccc2)cc1	76%
COc1ccc(C2CC(c3c(-c4ccccc4)c4cc(Cl)ccc4[nH]c3=O)=NN2C(=O)CN2CCCCC2)cc1 (stereo not drawn)	-1%
CCC(Sc1nc(N)c(NC(=O)c2ccccc2)c(=O)[nH]1)C(=O)OC (stereo not drawn)	-4%
O=C(OCc1nc2ccccc2s1)c1ccc([N+](=O)[O-])s1	1%
O=C(Nc1nc(-c2cc3ccccc3oc2=O)cs1)c1cccc(Oc2ccccc2)c1	-3%
CCOC(=O)c1cc([N+](=O)[O-])sc1NC(=O)c1ccc(Br)cc1	-13%
O=C(CSc1ncnc2c1nnn2Cc1ccccc1F)NCc1ccco1	4%
Cc1ccc(NC(=O)CSc2nc(N)c(NC(=O)c3ccco3)c(=O)[nH]2)cc1Cl	76%
CSc1ccc2nc(Nc3nnc(-c4ccc5c(c4)OCCO5)o3)sc2c1	15µg/mL*
COc1ccc(C(=O)Nc2nc(-c3ccc(-c4ccccc4)cc3)cs2)cc1OC	14%
O=C(c1ccco1)N1CCN(C(=O)c2cc3ccccc3oc2=O)CC1	-9%
O=C1NC(c2cccc(Oc3ccccc3)c2)C(C(=O)c2cccs2)C(O)(C(F)(F)F)N1 (stereo not drawn)	12%

Grouped by structure, the entries above containing a Cl atom.
molecule	Mtb H37Rv
Cc1ccc2cc(CCNC(=O)C3(c4ccc(Cl)cc4)CCCC3)c(=O)[nH]c2c1	-4%
CCOC(=O)Cn1c(=NC(=O)COc2ccc(Cl)cc2)sc2cc(S(N)(=O)=O)ccc21	-2%
CCOC(=O)c1nn(-c2ccc(C)cc2)c(=O)c2c(NC(=O)c3cc(Cl)ccc3OC)scc12	1%
O=C1NC(=Nc2ccc(Cl)cc2)SC1Cc1cccc(C(F)(F)F)c1 (stereo not drawn)	96%
Nc1nc(SCc2c(F)cccc2Cl)[nH]c(=O)c1NC(=O)c1ccco1	9%
O=C1N(Cc2cccc(Cl)c2)C2CS(=O)(=O)CC2N1c1ccccc1 (stereo not drawn)	-4%
NS(=O)(=O)c1ccc(CCNc2nc3c(-c4ccc(Cl)cc4)nnn3c3ccccc23)cc1	-6%
Cc1ccc(-n2nnc3c(=O)n(CC(N)=O)cnc32)cc1Cl	14%
O=C(CSc1nccn(-c2ccc(Cl)cc2)c1=O)c1ccc(F)cc1	4%
Cn1c(=O)c2c(SCC(=O)Nc3cc(C(F)(F)F)ccc3Cl)nc(-c3ccco3)nc2n(C)c1=O	-2%
COc1ccc(C2CC(c3c(-c4ccccc4)c4cc(Cl)ccc4[nH]c3=O)=NN2C(=O)CN2CCCCC2)cc1 (stereo not drawn)	-1%
Cc1ccc(NC(=O)CSc2nc(N)c(NC(=O)c3ccco3)c(=O)[nH]2)cc1Cl	76%

High-throughput results as filed in PubChem.

These rows are one share of the data; count on the stated rates, not on these rows.
